PV pol inh – poliovirus RdRp elongation inhibitors, primary screen, biochemical, fluorescence polarization, total intensity | poliovirus polymerase elongation; stronger effect = lower value | Genome polyprotein (Poliovirus type 1 (strain Mahoney)), P03300 | hit rate 0.66% among 150,000 | AID 588519, 2011 | % elongation, % (compound at 16.7 µg/mL); in the data active means % elongation below about 90%; further: some results filed as inactive read as strong as hits
Target sequence (P03300 1749-2209 limits assumed): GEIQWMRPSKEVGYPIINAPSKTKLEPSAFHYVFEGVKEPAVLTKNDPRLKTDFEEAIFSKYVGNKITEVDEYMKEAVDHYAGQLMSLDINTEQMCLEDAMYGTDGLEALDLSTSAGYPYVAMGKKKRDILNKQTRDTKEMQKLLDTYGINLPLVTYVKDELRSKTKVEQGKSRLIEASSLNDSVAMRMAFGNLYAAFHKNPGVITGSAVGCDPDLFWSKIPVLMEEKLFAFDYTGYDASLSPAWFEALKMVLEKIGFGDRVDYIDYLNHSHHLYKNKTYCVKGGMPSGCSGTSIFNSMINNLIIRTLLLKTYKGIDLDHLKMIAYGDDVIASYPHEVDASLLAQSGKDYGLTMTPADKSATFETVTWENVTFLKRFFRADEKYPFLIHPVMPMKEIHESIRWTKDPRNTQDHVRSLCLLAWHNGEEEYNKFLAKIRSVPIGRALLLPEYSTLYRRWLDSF
PV pol inh intensity – further read-out of PV pol inh, marked with its call; % elongation; measured here: total intensity read-out; formula for this scale not given here;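 total fluorescence in place of polarization; lower means less elongation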
Numbers without * were called inactive. These rows are one share of the data; rates above refer to the full screens.

The first two records as a preview:
structure	PV pol inh	PV pol inh intensity
O=c1c2sc3ccccc3c2n(Cc2ccccc2F)c(=O)n1CCc1ccccc1	101	98
Cc1ccc(Cn2c(CN3CCC(C(=O)NCc4cccnc4)CC3)cc3ccccc32)cc1	112	115

Results, from the start:
structure	PV pol inh	PV pol inh intensity
O=c1c2sc3ccccc3c2n(Cc2ccccc2F)c(=O)n1CCc1ccccc1	101	98
Cc1ccc(Cn2c(CN3CCC(C(=O)NCc4cccnc4)CC3)cc3ccccc32)cc1	112	115
O=C(Nc1cccc(Cl)c1Cl)c1ccc2c(c1)N(Cc1cccc(Cl)c1)C(=O)c1ccccc1S2(=O)=O	111	109
COc1ccccc1NC(=O)c1sc2nc3c(cc2c1N)CN(Cc1ccccc1)CC3	114	113
COC(=O)CCNC(=O)N1CCN(c2nnc(C)c3c(C)n(-c4ccc(Cl)cc4)nc23)CC1	108	111
CC(C)c1ccc(NC(=O)CC2Oc3ccccc3NC2=O)cc1 (stereo unspecified)	99	101
C=Cc1ccc(Cn2c(C(=O)O)c(CNCc3cc(Br)ccc3OC)c3ccc(C)cc32)cc1	113	112
O=C(C1CCN(S(=O)(=O)c2cccc3nonc23)CC1)N1CCN(c2ccc(F)cc2)CC1	107	108
CCn1cc(C(=O)NCCC(C)C)c(=O)c2cc(S(=O)(=O)N(C)C3CCCCC3)ccc21	104	109
O=C(Cn1nc(Cc2cccnc2)c2ccccc2c1=O)Nc1cccc(C(F)(F)F)c1	105	112
CCOC(=O)c1ccc(N2C(=O)c3[nH]nc(-c4ccc(OC)cc4)c3C2c2cccc(O)c2)cc1 (stereo unspecified)	112	110
CCn1ccc2c(OCC(=O)Nc3ccc(C(C)=O)cc3)cccc2c1=O	101	104
CC1CCN(C(=O)Cn2c(=O)oc3cc(S(=O)(=O)N4CCCCC4)ccc32)CC1	101	107
CN(C)c1ccc(CNC(=O)c2ccc(NC(=O)c3nsc4ccccc34)cc2)cc1	113	115
CCc1ccccc1NC(=O)C(CCSC)NS(=O)(=O)c1ccc2c(c1)oc(=O)n2C (stereo unspecified)	105	110
Cc1cc(C)c(S(=O)(=O)NCc2ccc3c(c2)CCN3C(=O)c2ccccc2)c(C)c1	112	98
COc1ccc2cc(-c3nc(Cl)c4c5c(sc4n3)CC(C)CC5)c(=O)oc2c1 (stereo unspecified)	114	121
COc1cccc(C2=C(C(C)=O)Sc3nncn3N2C(C)=O)c1	87*	88*
O=C(Nc1cc(C(F)(F)F)ccc1Cl)c1nc2ccccc2nc1N1CCCCC1	112	106
CCC(=O)N1CCc2cc(S(=O)(=O)NC(Cc3ccccc3)C(=O)Nc3cccc(OC)c3)ccc21 (stereo unspecified)	105	104
O=C(CSc1n[nH]c(-c2ccccc2Cl)n1)N1CCN(c2ccccc2F)CC1	102	100
O=C(CCC(=O)N1CC2CCCN2c2ccccc21)NCc1ccc(Cl)cc1 (stereo unspecified)	104	104
Cn1nnnc1SCCCNCc1ccccc1OCc1ccccc1Cl	102	95
CCOC(=O)c1ccccc1NC(=O)CSc1nc(=O)[nH]c2c1CCCC2	107	107
CCN(CC)c1ccc2nc3c(=O)n(C)c(=O)n(C)c3nc2c1	79	238
CN(C1CCCCC1)S(=O)(=O)c1ccc2c(c1)c(=O)c(C(=O)NCc1ccccc1Cl)cn2C	108	110
O=C(NCCCc1nc2ccccc2n1Cc1ccccc1Cl)C1CCCCC1	110	112
O=C(CN1C(=O)COc2ccc(S(=O)(=O)N3CCOCC3)cc21)N1CCN(c2ccc(F)cc2)CC1	104	110
CCCOc1ccc(C(=O)Nc2ccc3oc(-c4ccc(N(C)C)cc4)nc3c2)cc1	99	105
COC(=O)c1ccc(Cn2nc(-c3ccc(C)cc3)ccc2=O)cc1	109	93
COC(=O)c1nnn(-c2cccc(C)c2)c1C(=O)OC	114	114
CCCCCc1ccc(-c2ccc(Br)cc2)nc1	106	113
CCSc1ncc(Cl)c(C(=O)Nc2c(C(=O)Nc3cccc(C)c3)oc3ccccc23)n1	112	110
CCOC(=O)c1ccccc1NC(=O)CSc1c(C)cnc2c1c(=O)n(C)c(=O)n2C	103	104
CCOC(=O)c1c(S(=O)(=O)NCC(=O)N2CCN(c3ccccc3)CC2)c(C)n(C)c1C	113	112
COc1ccccc1-c1c(C)nn2c(N3CCN(c4ccc(F)cc4)CC3)cc(C)nc12	105	104
COc1ccc(OC)c(NC(=O)CSc2c3c(nc4ccccc24)CCCC3)c1	107	110
CCOc1ccc(-n2c(=O)c3c(C)c(C(=O)N(C)C)sc3n(Cc3cc(C)ccc3C)c2=O)cc1	98	106
Cc1ccc(S(=O)(=O)c2nnn3c2nc(N2CCN(c4ccccc4F)CC2)c2ccccc23)cc1C	105	103
CCOCN(C(=O)Cn1c(COC)nc2ccccc21)c1c(C)cccc1CC	108	112
Cc1cccc(N2CCn3c2nc2c3c(=O)n(C/C=C/c3ccccc3)c(=O)n2C)c1	110	111
CCOC(=O)c1cccc(NC(=O)Nc2c(C)n(C)n(-c3ccccc3)c2=O)c1	106	107
CCCn1ccc2c(OCC(=O)NCc3ccc(F)cc3)cccc2c1=O	108	109
CCCCOc1ccc(C(=O)Nc2ccc3oc(-c4cccnc4)nc3c2)cc1	105	111
Oc1ccccc1Nc1nc(-c2ccccc2)c2cc(Cl)ccc2n1	105	112

Some values from above.
`CCCCOc1ccc(C(=O)Nc2ccc3oc(-c4cccnc4)nc3c2)cc1` in PV pol inh = 105
`CCCn1ccc2c(OCC(=O)NCc3ccc(F)cc3)cccc2c1=O` in PV pol inh = 108
`CCCCCc1ccc(-c2ccc(Br)cc2)nc1` in PV pol inh intensity = 113
`Cc1cccc(N2CCn3c2nc2c3c(=O)n(C/C=C/c3ccccc3)c(=O)n2C)c1` in PV pol inh intensity = 111
`Oc1ccccc1Nc1nc(-c2ccccc2)c2cc(Cl)ccc2n1` in PV pol inh = 105

(cont.)
structure	PV pol inh	PV pol inh intensity
COc1ccccc1CNC(=O)CN(c1ccc(C)cc1)S(=O)(=O)c1c(C)noc1C	106	109
Cc1ccnc(NC(=O)c2c(C)oc3ncn(CC(C)C)c(=O)c23)c1	112	117
Cc1ccc(C(=O)N2CCN(CCc3ccncc3)CC2)cc1	109	112
COc1ccc(CCNC(=O)CCc2c(C)nc3cc(-c4ccccc4)nn3c2C)cc1OC	104	105
Cc1ccc(CNc2cc(C)nc3nc(-c4ccc(C)cc4)nn23)cc1	112	128
CCN(CC)c1nn2c(=O)c(C(=O)NCc3ccc(N(C)C)cc3)cnc2s1	108	109
O=C1CC(c2nnc(Cc3ccc(Cl)cc3)o2)CN1c1ccccc1 (stereo unspecified)	97	99
Cc1ccc(-c2nnc(C3CCN(S(=O)(=O)c4ccc(C)c(C)c4)CC3)o2)cc1	102	104
CC1CCN(S(=O)(=O)c2ccc3c(c2)CCN3C(=O)Nc2cccc(Br)c2)CC1	109	116
COc1ccc(-c2cn3nc(N4CCC(C(=O)Nc5cc(Cl)ccc5C)CC4)sc3n2)cc1	108	116
CCCN(C(=O)Cc1c(C(=O)O)[nH]c2ccc(Cl)cc12)c1ccc(OCC)cc1	101	106
CCC(C)n1c(SCc2ccc(F)cc2Cl)nc2ccsc2c1=O (stereo unspecified)	106	94
Cc1nc2c(-c3ccccc3)c(C)nn2c(C)c1CCC(=O)NCc1ccc(F)cc1	112	111
Cc1ccc(S(=O)(=O)N(CC(=O)Nc2ccc3c(c2)OCO3)c2cc(Cl)cc(Cl)c2)cc1	108	99
Cc1c(Cl)cccc1Nc1nn2c(=O)c3ccccc3nc2s1	102	109
COc1ccc(NC(=O)c2nnn(CC(=O)Nc3cccc(C)c3C)c2N)c(OC)c1	111	111
O=C(NCc1cccc(Cl)c1)c1cccn1-c1nnc(N2CCCC2)s1	103	108
CCN(c1ccccc1)S(=O)(=O)c1cc(-c2onc(C)c2C)ccc1OC	103	106
Cc1cc(C)cc(N(CC(=O)Nc2cccc(C)c2C)S(=O)(=O)c2c(C)[nH]c(=O)[nH]c2=O)c1	104	104
Cc1cccn2c(=O)c(/C=C(\C#N)c3nc4ccccc4n3C)c(Oc3ccc(Br)cc3)nc12	82	126
CCOC(=O)C1CCCN(c2c(C(=O)c3ccccc3)cnc3ccc(F)cc23)C1 (stereo unspecified)	102	106
Cc1ccc(NC(=O)C2CCC(CNS(=O)(=O)c3ccc4c(c3)CCCC(=O)N4)CC2)c(C)c1 (stereo unspecified)	108	101
Cc1ccc(S(=O)(=O)NCCS(=O)(=O)N2CCN(c3ccccc3)CC2)cc1	105	104
COc1cccc(CN(C(=O)c2cccc(C)c2)C2CCS(=O)(=O)C2)c1 (stereo unspecified)	102	102
O=C(Cn1c(=O)n(Cc2ccc(Cl)cc2)c(=O)c2cccnc21)Nc1ccccc1C(F)(F)F	104	107
Cc1cc(C)cc(NC(=O)c2cccc3c2C(=O)N(C2CCCCC2)C3)c1	106	107
Cc1cccc(Cn2c(SCc3ccc(C(=O)NCc4cccs4)cc3)nc3ccncc32)c1	106	106
COc1ccc(C)cc1NS(=O)(=O)c1cc(Br)cc2c1N(C(C)=O)C(C)C2 (stereo unspecified)	101	103
COc1ccc(CNC(=O)c2sc3nc4n(c(=O)c3c2C)CCCC4)cc1	105	112
O=C(CSc1nc(-c2ccccc2)nc2c1Cc1ccccc1O2)N1CCCCC1	107	111

(cont.)
Every second line gives: PV pol inh, PV pol inh intensity
> CCN(CC)CCCNC(=O)c1nn(C)c2c1CS(=O)(=O)c1ccccc1-2
 : 100, 105
> O=C(Nc1cccc(C(=O)OCc2cc(=O)n3c4c(sc3n2)CCCC4)c1)c1cccc(F)c1
 : 107, 113
> CCc1ccc(C2c3c(-c4cc(C)ccc4O)n[nH]c3C(=O)N2CCO)cc1 (stereo unspecified)
 : 110, 114
> CCc1ccc(NC(=O)C2CCN(S(=O)(=O)c3ccc4[nH]c5c(c4c3)CCCCC5)CC2)cc1
 : 102, 109
> O=C(Cn1c(=O)n(-c2ccc(F)cc2)c(=O)c2sc3ccccc3c21)NC1CCCC1
 : 105, 106
> COc1cccc(N2CCN(c3ncc4c(n3)CCN(Cc3ccc(Br)cc3)C4)CC2)c1
 : 104, 106
> Cc1ccc(C)c(CN2C(=O)C(O)(c3c(C)[nH]c4ccccc34)c3ccccc32)c1 (stereo unspecified)
 : 102, 106
> Cc1ccc(-n2nc(C(=O)N(C)c3ccc(C)c(C)c3)c3c4ccccc4n(C)c3c2=O)cc1
 : 104, 105
> CCN(CC)S(=O)(=O)c1ccc(C(=O)NCCSc2c(-c3ccccc3)[nH]c3ccccc23)cc1
 : 109, 110
> CN1C(C(=O)c2ccccc2)=C(NC(=O)c2ccccc2Br)c2ccccc2S1(=O)=O
 : 125, 184
> CCCCOc1ccc(C(=O)N2CC(=O)Nc3ccc(Br)cc3C2c2ccc(F)cc2)cc1 (stereo unspecified)
 : 100, 101
> COc1ccc(C2C(=O)N(C3CCCCC3)CC(=O)N2CCc2ccc(C)cc2)cc1OC (stereo unspecified)
 : 110, 109
> O=C(c1cnn(-c2ccc(F)cc2)c1-n1cccc1)N1CCN(c2ccc(Cl)cc2)CC1
 : 110, 111
> Cc1cc(C)c2sc(N3CCN(C(=O)c4ccc(N(C)C)cc4)CC3)nc2c1
 : 110, 107
> CCOc1ccccc1NC(=O)CSc1nc2ccccc2nc1N1CCOCC1
 : 109, 108
> COc1ccc(OC)c(CNC(=O)CN(c2ccc(C)cc2)S(=O)(=O)N(C)C)c1
 : 108, 111
> Cc1ccc(C2=NN(CC(=O)NCCc3ccc(Cl)cc3)C(=O)CC2)cc1
 : 112, 112
> CC(C)(C)NC(=O)Cn1cc(S(=O)(=O)Cc2ccc(F)cc2)c2ccccc21
 : 107, 105
> Cc1ccc(-n2ncc(C(=O)NCc3cccs3)c2C2CCN(C(=O)OC(C)(C)C)CC2)c(C)c1
 : 99, 105
> Cc1ccc2nc(NCCc3ccccc3)c3nncn3c2c1
 : 106, 108
> Cc1cccc(N2CCN(Cc3nnc(-c4ccccc4C)o3)CC2C)c1 (stereo unspecified)
 : 102, 101
> COc1ccccc1NC(=O)CCCc1nnc2n(C)c(=O)c3sccc3n12
 : 102, 103
> CC(=O)c1ccc(NC(=O)c2nc(-c3ccccc3)n(-c3ccc(C)cc3)n2)cc1
 : 106, 114
> O=S(=O)(c1ccccc1)c1nc(-c2cccc(Cl)c2)oc1NCc1ccccc1
 : 107, 105
> COc1ccc(Cl)cc1NC(=O)COc1cccc2c(=O)n(C)ccc12
 : 108, 109
> CCN(CC)S(=O)(=O)c1nnc(NC(=O)COc2cccc(C)c2)s1
 : 102, 98
> CC(=O)Nc1c(C)nn(-c2ccccc2)c1N1CCC(C(=O)Nc2ccc(C)cc2Cl)CC1
 : 112, 112
> Cc1oc(-c2ccc(Cl)cc2)nc1CN1CCCC(C(=O)NCCc2ccccc2)C1 (stereo unspecified)
 : 111, 111
> Cc1ccc(-c2cc(C(F)(F)F)n3nc(C(=O)Nc4ccc(Cl)cc4Cl)cc3n2)cc1
 : 102, 103
> Cc1ccc2c(=O)c(C(=O)c3cccc(Cl)c3)cn(CC(=O)Nc3ccccc3C(F)(F)F)c2n1
 : 116, 111
> Cc1cn(C)c(CC(=O)N2CCN(c3cccc(C(F)(F)F)c3)CC2)c1C(=O)O
 : 114, 106
> O=C(CC1Nc2cccc3cccc(c23)NC1=O)Nc1ccc(F)cc1 (stereo unspecified)
 : 94, 97
> Cc1cccc(CS(=O)(=O)c2ncc(Cl)c(C(=O)Nc3nnc(C(C)C)s3)n2)c1
 : 102, 107
> COc1ccc(/C=C/c2nc(C#N)c(NCc3ccc(C)cc3)o2)cc1OC
 : 107, 104

Part of the list above in order of formula weight, low to high.
Every second line gives: PV pol inh, PV pol inh intensity
> O=C(Cn1nc(Cc2cccnc2)c2ccccc2c1=O)Nc1cccc(C(F)(F)F)c1
 : 105, 112
> COc1ccc(C2C(=O)N(C3CCCCC3)CC(=O)N2CCc2ccc(C)cc2)cc1OC (stereo unspecified)
 : 110, 109
> CCc1ccccc1NC(=O)C(CCSC)NS(=O)(=O)c1ccc2c(c1)oc(=O)n2C (stereo unspecified)
 : 105, 110
> CCN(CC)S(=O)(=O)c1ccc(C(=O)NCCSc2c(-c3ccccc3)[nH]c3ccccc23)cc1
 : 109, 110

Screening results (PubChem)
